Assay outcomes deposited in PubChem BioAssay by ICCB-Longwood Screening Facility, Harvard Medical School.
BasE inh – inhibitors of Acinetobacter baumannii siderophore enzyme BasE. purified BasE, fluorescence polarization binding displacement. inhibition, % (no concentration beside the values). 84,000 tested, 0.1% active;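 active = both replicates above 25% with normal brightness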;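 also: 0% = negative plate control signal and 100% = positive plate control signal; stock transfer was 100 nL into about 30 µL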
LANA-nucl inh – inhibitors of KSHV LANA binding to nucleosomes; FITC-LANA1-23 / chicken nucleosome fluorescence polarization; hits give low values; z-score (test concentration not listed); 51,000 tested, 0.3% active; AID 720717;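 active = both repeat wells score below -2 in polarization z-score versus plate sample wells, excluding overly bright wells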;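 also: 100 nL library stock added to about 30 µL; numbers are from one replicate; some results filed as inactive read as strong as hits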
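Assay system: FITC-LANA peptide and chicken nucleosomes; input: 240 nM purified chicken nucleosomes (480 nM peptide binding sites), final; also added: 50 nM FITC-LANA1-23 probe; medium: TEN-BT buffer, pH 7.5; doses: pin-transferred compound, 100 nL; times: 10–45 min, room temperature; technique: fluorescence polarization; replication: duplicates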
Starred values were filed as active, the others as inactive; nt = no result given.

Structure	BasE inh	LANA-nucl inh
COCCN(Cc1ccco1)C(=O)c1cc2c(s1)-c1ccccc1OC2	-0.1	-1.3
O=C(CCC(=O)Nc1ccc(S(=O)(=O)N2CCCCC2)cc1)Nc1ccc(S(=O)(=O)N2CCCCC2)cc1	0.5	0.062
Cn1c(CCCCN)nc2ccccc21	-2.2	-0.64
CCCN(CCC)C(=O)C1=C(C)C(=O)OC12CCC(C)CC2 (stereo not given)	0.4	0.4
Cc1cc(C(=O)COC(=O)CC2Sc3ccccc3NC2=O)c(C)n1C (stereo not given)	3.0	nt
CCOC(=O)C1=C(C)NC(C)=C(C(=O)OCC)C1C1=COCCO1	-0.6	0.82
CC(C(=O)N/C(N)=N/c1nc2ccccc2s1)N1C(=O)c2ccccc2C1=O (stereo not given)	2.5	nt
O=C(Nc1cccc(O)c1)c1cccc(-n2cnnc2)c1	4.5	-0.13
CC1=C(c2ccccc2)[N+](=O)C(C)(C)N1[O-]	2.2	-0.051
Cc1[nH]c(=O)c(C#N)c(C)c1CCC(=O)NC1(C)CCS(=O)(=O)C1 (stereo not given)	-0.5	nt
CCCCn1c(N)c(N(CC(C)C)C(=O)COc2ccc(F)cc2)c(=O)[nH]c1=O	1.6	nt
c1ccc(-c2nc(-c3ccco3)cs2)nc1	-1.1	nt
O=c1[nH]c(O)c(C=NCCCn2ccnc2)c(=O)[nH]1	4.8	0.13
O=C(NCc1ccccc1)C1C2CC3OC(=O)C1C3C2 (stereo not given)	1.8	0.21
Cc1c(C(=O)Nc2ccccc2)sc2ncn(CC(=O)N3CCOCC3)c(=O)c12	-3.4	0.49
Cc1nn(CC(O)c2ccccc2)c(C)c1Br (stereo not given)	0.3	nt
Cc1oc(-c2ccc(C(=O)NCc3ccccn3)cc2)nc1Cn1cccn1	21	-1.7
Cc1nc2ccccc2c(=O)n1/N=C/c1ccc2c(c1)OCO2	1.4	nt
CCCOc1ccccc1N	0.7	-0.061
Cc1cc(C)c(C)c(S(=O)(=O)N2CCSCC2)c1C	0.9	-0.54
COc1ccc(CN(C)Cn2c(=S)oc3ccccc32)cc1	4.9	nt
O=C(O)/C=N/NC(=O)c1ccccc1	-0.5	-0.23
CC1CCCN(C(=S)NC(=O)C2CC2)C1 (stereo not given)	-0.7	nt
CCOC(=O)CSCc1cn2c(C)cc(C)nc2n1	-0.3	nt
NC1=NC(=O)C(CC(=O)Nc2ccccc2)S1 (stereo not given)	0.7	nt

Some of these compounds in order of the LANA-nucl inh value, high to low:
compound	LANA-nucl inh
CCOC(=O)C1=C(C)NC(C)=C(C(=O)OCC)C1C1=COCCO1	0.82
Cc1c(C(=O)Nc2ccccc2)sc2ncn(CC(=O)N3CCOCC3)c(=O)c12	0.49
O=C(NCc1ccccc1)C1C2CC3OC(=O)C1C3C2 (stereo not given)	0.21
CCCOc1ccccc1N	-0.061
Cn1c(CCCCN)nc2ccccc21	-0.64
Cc1oc(-c2ccc(C(=O)NCc3ccccn3)cc2)nc1Cn1cccn1	-1.7

Returning to the listing; the 2 compounds before the break are reprinted first.
Structure	BasE inh	LANA-nucl inh
CCOC(=O)CSCc1cn2c(C)cc(C)nc2n1	-0.3	nt
NC1=NC(=O)C(CC(=O)Nc2ccccc2)S1 (stereo not given)	0.7	nt
OC(COc1ccc(Br)cc1)CN1CCCN(c2nc3ccc(Cl)cc3s2)CC1 (stereo not given)	3.4	nt
CN(C)S(=O)(=O)c1ccc(NC(=O)CSc2ncccn2)cc1	2.8	nt
C/S(=N\C(=O)Nc1ccc(Cl)cc1)c1sc(Cl)c2c1C(=O)CCC2 (stereo not given)	-0.3	nt
O=C1NC(=Nc2ccccc2Br)SC1(CO)CO	2.8	-0.45
CC(C)n1c(=S)[nH]c2scc(-c3cccs3)c2c1=O	-0.5	nt
O=C(CCNC(=O)c1ccc(Br)cc1)Nc1nc2ccccc2[nH]1	-3.1	nt
OC(CCCN1CCCCC1)(c1ccccc1)c1ccccc1	0.3	-0.96
CCOc1ccc2cc(Br)ccc2c1	nt	0.2
Cn1c(=O)c2c(SCC(=O)Nc3ccccc3C(F)(F)F)ccnc2n(C)c1=O	-0.7	-2.1*
COC(CNS(=O)(=O)c1ccc(S(=O)(=O)NC2CC2)cc1)OC	-0.5	1.3
Oc1ccccc1C1=Nc2ccccc2N=C(c2ccc(Cl)cc2)C1	0.8	nt
CC(C(=O)Nc1ccc2c(c1)OCO2)N(C)CC(=O)Nc1ccccc1Cl (stereo not given)	2.3	nt
O=C(CSc1ncn[nH]1)Nc1ccc(OCc2ccccc2)cc1	5.0	nt
O=C(Nc1ccccc1Cc1ccccc1)c1ccc(Br)o1	-0.2	nt
O=C(COC(=O)c1cccs1)NCc1cccs1	1.7	-0.57
COC(=O)c1cc2oc3ccccc3c2n1CC(=O)Nc1ccc(F)cc1F	1.5	-0.66
CCn1c(SCC(=O)c2ccc(Br)cc2)nnc1-c1ccncc1	3.6	-0.09
CCN(CC)S(=O)(=O)c1ccc2c(c1)nc(CCC(=O)OCC#N)n2C	-1.6	nt
Cc1ccc(C)c(-n2c(=O)c3ccccc3n3c(SC(C)C(N)=O)nnc23)c1 (stereo not given)	3.4	nt
Cc1sc2nc(N)c(C#N)c(C)c2c1C	-1.0	0.78
COc1ccc(-n2c(N)c(C(=O)NCCN3CCOCC3)c3nc4ccccc4nc32)cc1OC	-1.9	nt
Cc1cccc(C)c1NC(=O)CN(C)C(C)C(=O)N1c2ccccc2CC1C (stereo not given)	-1.6	nt
Cc1cccc(C)c1N1C(=O)CC(N2CCSCC2)C1=O (stereo not given)	nt	-0.21
CCCNC(=O)N(C)c1nncnc1C(=O)NC	0.5	nt
COC(=O)C(C)(C)NC(=O)c1cccs1	3.5	-0.38

(more compounds)
Structure	BasE inh	LANA-nucl inh
CCOC(=O)C1=C(C)N(CCOC)C(=O)/C1=C\c1ccc(N(C)C)cc1	2.9	-0.55
COc1ccc(C(=O)c2cc3c(CO)cnc(C)c3oc2=O)cc1	0.9	0.16
O=C(OCc1cccc(COC(=O)c2ccccc2)c1F)c1ccccc1	1.0	nt
COc1cccc(N2C(N)=NC(N)=NC2(C)C)c1	-1.4	0.89
CCc1ccc(C=NN2CCN(Cc3ccccc3)CC2)cc1	4.4	nt
Cn1cc(S(=O)(=O)N2CCc3ccccc32)cc1C(=O)NC1CCCCCCC1	-0.5	1.6
COc1ccc(C2CC(O)=C(C#N)c3nc4ccccc4n32)cc1 (stereo not given)	0.3	nt
CCCn1c2ccccc2c2cn[nH]c(=O)c21	-0.1	-0.85
CC(NC(=O)c1ccccc1C(=O)NC(C)c1ccc2c(c1)OCCO2)c1ccc2c(c1)OCCO2 (stereo not given)	1.4	nt
CC(C)(C)c1nnc2n(c1=O)N=C(c1ccc(F)cc1)CS2	-2.8	2.4
CCN(CC)S(=O)(=O)c1ccc2[nH]c(=O)cc(C(=O)O)c2c1	-0.3	nt
Cc1ccccc1C1NS(=O)(=O)N=C1N (stereo not given)	-3.2	1.5
COc1ccc(NS(=O)(=O)c2ccc(Oc3c(C#N)cccc3C#N)cc2)cc1	2.8	nt
C=CCn1c(SC(C)C(=O)NC(N)=O)nc2ccccc2c1=O (stereo not given)	-0.1	nt
C=CCn1c(N)nc2ccccc21	1.7	-0.24
COC(=O)c1cc2nc(-c3ccccc3)cc(C)n2n1	1.4	-0.12
COC(=O)[C@@H]1CC(O)CN1C(=O)C12CC3CC(CC(C3)C1)C2 (stereo not given in full)	-1.8	nt
NC(=O)CSc1oc(-c2ccccc2)nc1S(=O)(=O)c1ccccc1	0.2	0.66
O=C(Cc1coc2cc3c(cc12)CCC3)NCCNc1ncc(C(F)(F)F)cc1Cl	4.1	nt
C#CC(CC)(CC)Nc1ccsc1C(=O)O	1.1	-0.67
Cc1cc(C)nc(NS(=O)(=O)c2ccc(Br)cc2)n1	2.3	nt
O=C1C2N=NN(Cc3ccccc3)C2C(=O)N1c1ccccc1 (stereo not given)	3.6	-0.16
CCOC(=O)c1cc(C)n(-n2cnnc2)c1C	1.5	0.14
CCS(=O)(=O)N1CCc2cc(C(=O)CSc3nnc(C)s3)ccc21	-0.4	nt
Cc1ccc(SCCC(=O)Nc2ccc(CC#N)cc2)cc1	3.0	-0.76

Printed as active in LANA-nucl inh (from the list above):
Molecule | LANA-nucl inh
Cn1c(=O)c2c(SCC(=O)Nc3ccccc3C(F)(F)F)ccnc2n(C)c1=O | -2.1*

Following part
Structure	BasE inh	LANA-nucl inh
COc1ccc(CNC(=O)CN(c2ccccc2OC)S(C)(=O)=O)cc1	2.1	-0.76
COc1ccc(-n2nc3c(c2NC(=O)c2ccccc2)CSC3)cc1	-0.1	-0.81
NC(=O)CSc1nnc2n(-c3ccccc3)c(=O)c3c(n12)-c1ccccc1CC31CCCC1	0.2	0.18
CC(C)(C)OC(=O)NCC1CCN(S(=O)(=O)Cc2ccccc2)CC1	1.7	-0.67
CC(=O)NCCC(=O)N1CCN(S(=O)(=O)c2ccc(C(C)C)cc2)CC1	2.4	nt
CN(C)/C=C1/C=C(c2ccccc2)SC1=S	1.9	nt
O=C(NC1CCCC1)C1CCCN1C(=O)Nc1ccccc1 (stereo not given)	0.8	-0.68
OC12CC3CC(CC(C3)C1)C2	0.1	nt
Cc1nc2ccccc2n1CC(=O)OC(C)C(=O)NC1CCCC(C)C1C (stereo not given)	1.7	nt
CS(=O)(=O)N1CCN(c2ccc(NC(=O)Nc3cccc(Cl)c3)cc2)CC1	-0.3	0.81
O=C(c1ncoc1-c1cccs1)N1CCOCC1	0.1	0.18
Cc1c(C(=O)OCC(=O)c2cc(C)n(NC(=O)c3n[nH]c(=O)c4ccccc34)c2C)oc2ccc(Cl)cc12	0.3	nt
NC(=O)C1(NCCNC2(C(N)=O)CCCCC2)CCCCC1	2.5	nt
CCOc1ncccc1C(=O)Nc1ccc(-c2cn3c(n2)SCC3)cc1	2.8	-0.24
CCn1c(-c2ccc3c(c2)OCCO3)cnc1SCC(=O)N1CCc2ccccc2C1	-1.3	nt
CCCCNC(=O)Cc1ccc(C)cc1	0.6	1
CC(C)n1nnnc1SCC(=O)OC1CCCCC1	-0.8	-0.27
Cc1ccc2c(c1)C1CN(C)CCC1N2S(=O)(=O)c1ccc(C#N)cc1 (stereo not given)	-1.0	nt
O=C1Nc2c(C(F)(F)F)cccc2C12SCCS2	-3.3	-0.38
COc1cccc(NC(=O)CC(C)NC2CC(C)(C)NC(C)(C)C2)c1 (stereo not given)	2.9	nt
CC(C)n1cnnc1SCC(=O)NC(=O)c1ccc(Cl)cc1	2.9	nt
CCN1c2ccccc2C2=C(C(c3ccccc3)C(C#N)=C(N)O2)S1(=O)=O (stereo not given)	-0.6	-0.89
O=c1[nH]c(CSC2=NCCS2)nc2ccccc12	0.9	-0.021
S=c1[nH]ncc2ccccc12	0.8	nt
COc1ccc(CN2CCCC(C(=O)Nc3c(C)cccc3C)C2)cc1OC (stereo not given)	1.8	-0.26

Next section:
Structure	BasE inh	LANA-nucl inh
CCCn1c(N)nc2c1c(=O)[nH]c(=O)n2C	0.4	-0.7
CCC(c1nnnn1Cc1ccccc1)N(Cc1cccs1)Cc1cc2ccc(C)cc2[nH]c1=O (stereo not given)	-0.6	-0.33
O=C(OCC1CC(c2ccccc2)=NO1)c1cccc(C(=O)OCC2CC(c3ccccc3)=NO2)n1 (stereo not given)	-2.9	nt
C=CCn1c(SC)nc2sc(C)c(C)c2c1=O	2.7	-0.52
OC(CNC(=S)Nc1ccccc1)c1ccccc1 (stereo not given)	-1.7	0.33
CCC(C)c1ccccc1NC(=O)C1CSC2(C)CCC(=O)N12 (stereo not given)	0.0	nt
COc1ccc(S(=O)(=O)NCCOc2ccccc2)cc1-n1cnnn1	-1.3	-1.2
O=C(Cn1c2[n+](c3ccccc31)CC(O)CS2)N1CCCCC1 (stereo not given)	-1.9	0.11
CC(C)(C)S(=O)(=O)c1ccsc1	-3.2	1.2
CN(CC(=O)C1=C(c2ccc(Br)cc2)C(=O)c2ccccc2C1=O)c1ccccc1	2.7	nt
CCOc1ccc(C(=O)/C=C2/NCCNC2=O)cc1	1.8	nt
CC1CN(C)C(C)CC1NCCc1ccccc1 (stereo not given)	-3.0	0.33
NC(=NCc1ccc(Cl)cc1Cl)NC(=O)c1nc(Cl)c(N)nc1N	-25	0.078
COc1ccc(/C=N\N2CCN(c3ccccc3)CC2)cc1	0.7	0.2
Cc1ccsc1C(=O)Nc1sc2c(c1C#N)CCCC2	1.3	nt
O=C(CCN1C(=O)c2ccccc2C1=O)NCc1ccccc1	1.5	nt
O=C(c1cccs1)N1CCN(C(=O)c2cccs2)CC1	0.9	0.29

Only part of the results is shown; count on the stated rates, not on these rows.
